Bfl-1 inhibitors: Bfl-1 inhibitors, primary screen, biochemical, fluorescence polarization, FITC-Bid, mouse (AID 432). 64,000 tested, 0.02% active. displacement, % at 20 µM; hits with a dose series show IC50 in µM. FITC-Bid BH3 peptide fluorescence polarization displacement; higher % means a stronger effect; in the data active means a potency from the dose series; inactive means the rest, 99 in 100 with displacement below about 15%; further: strong numbers were not always called active
HT1080 cytotoxicity: HT1080 cell viability loss – fluorescence readout (AID 620) | HT1080 viability, fluorescence; higher % means a stronger effect | 87,000 tested, 0.42% active | one-dose cytotoxicity, % at 10 µM; EC50 in µM for titrated hits;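 further: cells exposed to compound overnight then 4 h with Alamar Blue; 0% = vehicle DMSO and 100% = killing control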
KRASV12 cytotoxicity: viability loss of HPDE-C7K cells – cell-based, fluorescence, HTS, primary screen (AID 431); HPDE-C7K KRASV12 cells, Alamar Blue viability, 48 h; higher % means a stronger effect; cytotoxicity, % at 10 µM, or EC50 in µM where a hit was titrated; 63,000 tested, 1.7% active;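 active means compounds whose percent cytotoxicity in the single-dose primary screen, scaled between solvent and toxic-drug controls, exceeds 50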;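 further: 0% = DMSO solvent wells and 100% = doxorubicin-treated wells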
HPDE-C7 viability: cytotoxicity in HPDE-C7 cells, cell-based, fluorescence, HTS (AID 430); 63,000 tested, 1.8% active; HPDE-C7 pancreatic duct cells viability, fluorescence; higher % means a stronger effect; cytotoxicity, % at 10 µM, or EC50 in µM where a hit was titrated;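 further: cells exposed to compound for 48 hours before viability readout; 0% = vehicle and 100% = reference cytotoxic drug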
Alkaline phosphatase: human TNAP enzyme inhibitors, biochemical, luminescent (AID 518); purified TNAP enzyme, luminescent substrate readout; higher % means a stronger effect; inhibition, % at 20 µM; hits with a dose series show IC50 in µM; 64,000 tested, 0.09% active; in the data active means a potency from the dose series; inactive means the rest, 99 in 100 with inhibition below about 22%;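 further: plate controls were vehicle for no effect and reference inhibitor for full effect; many of its hits are not listed in these tables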
LYP inhibition: LYP phosphatase inhibitors, primary screen, biochemical, DiFMUP fluorescence, recombinant catalytic domain, 10 µM (AID 606). recombinant LYP catalytic domain, DiFMUP fluorescence; higher % means a stronger effect. inhibition, % at 10 µM; hits with a dose series show IC50 in µM. 52,000 tested, under 10 active;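 active means IC50 under 40 µM in the dose-response test; inactive means IC50 of 40 µM or more, or never dose-tested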
Starred values were filed as active, the others as inactive; nt = not tested or not shown. Unless noted, no stated cut-off is given here; in the data, active means cytotoxicity above about 50%; inactive means the rest. A portion of the library; rates above refer to the full screens.

Keys – A = Bfl-1 inhibitors; B = HT1080 cytotoxicity; C = KRASV12 cytotoxicity; D = HPDE-C7 viability; E = Alkaline phosphatase; F = LYP inhibition
> COc1nc(Oc2ccc(C(=O)OCC(N)=O)cc2)nc(N(C)C)n1
  A: -1% | B: -11% | C: -7% | D: 4% | E: 3% | F: -15%
> O=C(c1ccc(S(=O)(=O)N2CCCCC2)cc1)c1nnc(-c2ccc(Cl)cc2)o1
  A: 0% | B: 6% | C: -6% | D: -14% | E: 3% | F: -6%
> COC(=O)c1cc2oc(C)cc2n1CC(=O)N(C)c1ccccc1
  A: 1% | B: 18% | C: -2% | D: -12% | E: 12% | F: nt
> N=c1c2c(-c3ccccc3)c(-c3ccccc3)oc2ncn1CCN1CCOCC1
  A: -5% | B: -34% | C: 34% | D: 29% | E: 13% | F: 8%
> CCn1c(SCC(=O)Nc2cccc(OC)c2)nnc1-c1ccc(Cl)cc1
  A: -1% | B: -8% | C: -10% | D: 4% | E: 10% | F: 7%
> COc1ccc(CCN(C)C(=O)C2CCCN(Cc3ccc(OC)c(OC)c3)C2)cc1OC (configuration not stated)
  A: -1% | B: -8% | C: 1% | D: -11% | E: 4% | F: 5%
> CC(C)C[C@H](NC(=O)NCCc1ccc(Cl)cc1)C(=O)O
  A: -4% | B: -2% | C: 8% | D: 5% | E: 7% | F: -9%
> O=C1CC(C(=O)Nc2ncccn2)C(c2ccccc2)O1 (configuration not stated)
  A: -3% | B: 3% | C: -6% | D: -4% | E: 9% | F: 17%
> CCOC(=O)c1cnn(-c2nc(-c3ccccc3)nc3c2COC(C)(C)C3)c1N
  A: -8% | B: 3% | C: 7% | D: 2% | E: 17% | F: -1%
> COc1cc(C)nc(Oc2ccc(OCCOc3ccc(C)cc3)nn2)n1
  A: 1% | B: 32% | C: 5% | D: 7% | E: -1% | F: -2%

Random excerpt: 4 compounds from above
Keys – A = Bfl-1 inhibitors; B = HT1080 cytotoxicity; C = KRASV12 cytotoxicity; D = HPDE-C7 viability; E = Alkaline phosphatase; F = LYP inhibition
> CCOC(=O)c1cnn(-c2nc(-c3ccccc3)nc3c2COC(C)(C)C3)c1N
  A: -8% | B: 3% | C: 7% | D: 2% | E: 17% | F: -1%
> CC(C)C[C@H](NC(=O)NCCc1ccc(Cl)cc1)C(=O)O
  A: -4% | B: -2% | C: 8% | D: 5% | E: 7% | F: -9%
> CCn1c(SCC(=O)Nc2cccc(OC)c2)nnc1-c1ccc(Cl)cc1
  A: -1% | B: -8% | C: -10% | D: 4% | E: 10% | F: 7%
> O=C(c1ccc(S(=O)(=O)N2CCCCC2)cc1)c1nnc(-c2ccc(Cl)cc2)o1
  A: 0% | B: 6% | C: -6% | D: -14% | E: 3% | F: -6%

More compounds follow:
Keys – A = Bfl-1 inhibitors; B = HT1080 cytotoxicity; C = KRASV12 cytotoxicity; D = HPDE-C7 viability; E = Alkaline phosphatase; F = LYP inhibition
> O=C(COc1nc2ccccc2nc1N1CCOCC1)N1CCc2ccccc21
  A: -12% | B: 3% | C: 30% | D: 25% | E: 3% | F: nt
> CCC(=O)Nc1ccc(Cl)c(NC(=O)c2cccnc2)c1
  A: 2% | B: -2% | C: -14% | D: -12% | E: 4% | F: 7%
> Cc1nc(C)c(C(=O)Nc2ccc(Oc3ccccc3)cc2)o1
  A: -6% | B: -15% | C: 6% | D: -3% | E: 17% | F: -3%
> Cc1ccc2c(c1)N(CCC(=O)NCC1CCCO1)C(=O)CO2 (configuration not stated)
  A: -4% | B: 2% | C: -10% | D: -5% | E: 2% | F: 12%
> COC(=O)CSc1nnc(-c2ccncc2)n1N
  A: -5% | B: 7% | C: 2% | D: -7% | E: 8% | F: -7%
> CCCc1[nH]nc2c1C(c1cccnc1)C(C#N)=C(N)O2 (configuration not stated)
  A: -1% | B: 1% | C: -18% | D: -10% | E: 14% | F: 1%
> O=S(=O)(NCc1ccco1)c1cccc(S(=O)(=O)N2CCOCC2)c1
  A: -5% | B: 2% | C: 10% | D: 3% | E: 10% | F: -5%
> COc1ccc(CSc2nnnn2Cc2ccccc2)cc1OC
  A: -6% | B: -21% | C: 6% | D: -6% | E: 6% | F: 12%
> Cc1c(C)n(CC(O)CN2CCOCC2)c2ccccc12 (configuration not stated)
  A: -2% | B: -1% | C: -7% | D: 0% | E: 6% | F: -8%
> COCCCNS(=O)(=O)c1ccc(OC)c(Cl)c1Cl
  A: 4% | B: 3% | C: 3% | D: 3% | E: 9% | F: -10%

Reformatted as tab-separated lines: entries from further up.
SMILES	Bfl-1 inhibitors	HT1080 cytotoxicity	KRASV12 cytotoxicity	HPDE-C7 viability	Alkaline phosphatase	LYP inhibition
CCCc1[nH]nc2c1C(c1cccnc1)C(C#N)=C(N)O2 (configuration not stated)	-1%	1%	-18%	-10%	14%	1%
O=S(=O)(NCc1ccco1)c1cccc(S(=O)(=O)N2CCOCC2)c1	-5%	2%	10%	3%	10%	-5%

Remaining list, next part.
Keys – A = Bfl-1 inhibitors; B = HT1080 cytotoxicity; C = KRASV12 cytotoxicity; D = HPDE-C7 viability; E = Alkaline phosphatase; F = LYP inhibition
> COc1ccc(S(=O)(=O)NC(CC(=O)NCc2ccccc2OC)c2ccco2)cc1 (configuration not stated)
  A: 0% | B: 2% | C: -7% | D: -7% | E: 8% | F: -1%
> OCc1ccccc1OCCOc1ccc(Cl)c2cccnc12
  A: 2% | B: 7% | C: 15% | D: 3% | E: 2% | F: 6%
> Cc1oc2c(CN3CCCC3)c(O)ccc2c(=O)c1-c1ccc(Cl)cc1
  A: -6% | B: -16% | C: -8% | D: 3% | E: 8% | F: 5%
> CCCCN(C)CCCNC(=O)C1CC(=O)N(Cc2ccc(OC)cc2)C1 (configuration not stated)
  A: -30% | B: nt | C: -22% | D: -22% | E: 4% | F: 2%
> O=C1CC2CS(=O)(=O)CC2N1c1ccc(Oc2ccccc2)cc1 (configuration not stated)
  A: 6% | B: -2% | C: -10% | D: -4% | E: 5% | F: 11%
> C=CCNC(=O)C1CCN(c2nc(C)cc(-c3ccccc3)n2)CC1
  A: 8% | B: -2% | C: 7% | D: -3% | E: 14% | F: nt
> CN(C)CCCOC(=O)c1ccc(Br)cc1
  A: -15% | B: -5% | C: -16% | D: -18% | E: -8% | F: 5%
> NC(=O)c1sc2nc(N3CCCCC3)c3c(c2c1N)CCCC3
  A: 4% | B: -2% | C: 29% | D: 20% | E: 21% | F: 2%
> COc1ccccc1Nc1nc(NCCO)c2ccccc2n1
  A: -5% | B: -1% | C: -8% | D: 3% | E: 6% | F: nt
> Cc1cc(C)nc(SCC(=O)c2ccc(O)cc2O)n1
  A: -11% | B: 4% | C: -9% | D: -21% | E: 3% | F: 4%

(further entries)
Keys – A = Bfl-1 inhibitors; B = HT1080 cytotoxicity; C = KRASV12 cytotoxicity; D = HPDE-C7 viability; E = Alkaline phosphatase; F = LYP inhibition
> Cc1cc(C)c2c(n1)nn1c(NCCCN(C)C)cc(C)nc21
  A: 0% | B: 6% | C: 10% | D: 11% | E: -23% | F: -14%
> N#Cc1c(NC(=O)CN2CCN(S(=O)(=O)c3ccc4c(c3)OCCO4)CC2)sc2c1CCC2
  A: -15% | B: 2% | C: -4% | D: -18% | E: 8% | F: 2%
> O=C(Nc1ccccn1)c1ccc(=O)[nH]n1
  A: 1% | B: 0% | C: 1% | D: 5% | E: 1% | F: 6%
> CC(OC(=O)c1nsc(Cl)c1Cl)C(=O)NCc1ccco1 (configuration not stated)
  A: 2% | B: -5% | C: 2% | D: 6% | E: 5% | F: nt
> CC(=O)N1c2c(cc(Br)cc2S(=O)(=O)NCc2cccnc2)CC1C (configuration not stated)
  A: -7% | B: -13% | C: 5% | D: -7% | E: 6% | F: nt
> Cc1c(C(=O)NCc2cccnc2)oc2ccc(S(=O)(=O)N3CCCC(C)C3)cc12 (configuration not stated)
  A: -14% | B: 4% | C: -6% | D: -25% | E: 18% | F: -7%
> Cn1c(=O)n(CC(=O)N2CCOCC2)c2ccccc21
  A: nt | B: 6% | C: nt | D: nt | E: nt | F: 25%
> COc1ccc(CCNC(=O)C2CC(=O)N(c3ccc(F)cc3)C2)cc1OC (configuration not stated)
  A: -5% | B: nt | C: 4% | D: 1% | E: 12% | F: 7%
> Cc1cccc(-n2c(CNC(=O)c3ccccc3)nnc2SCC(=O)Nc2nccs2)c1
  A: -1% | B: 3% | C: -10% | D: -22% | E: 8% | F: 5%
> COc1ccc(-n2c(Cc3cc(=O)[nH]c(=O)[nH]3)nnc2SCC(=O)NC2CCCC2)cc1
  A: -5% | B: -6% | C: 0% | D: 1% | E: 7% | F: 4%

Another view of 4 compounds above:
molecule | Bfl-1 inhibitors | HT1080 cytotoxicity | KRASV12 cytotoxicity | HPDE-C7 viability | Alkaline phosphatase | LYP inhibition
Cn1c(=O)n(CC(=O)N2CCOCC2)c2ccccc21 | nt | 6% | nt | nt | nt | 25%
COc1ccc(CCNC(=O)C2CC(=O)N(c3ccc(F)cc3)C2)cc1OC (configuration not stated) | -5% | nt | 4% | 1% | 12% | 7%
Cc1cccc(-n2c(CNC(=O)c3ccccc3)nnc2SCC(=O)Nc2nccs2)c1 | -1% | 3% | -10% | -22% | 8% | 5%
COc1ccc(-n2c(Cc3cc(=O)[nH]c(=O)[nH]3)nnc2SCC(=O)NC2CCCC2)cc1 | -5% | -6% | 0% | 1% | 7% | 4%

Later entries.
Keys – A = Bfl-1 inhibitors; B = HT1080 cytotoxicity; C = KRASV12 cytotoxicity; D = HPDE-C7 viability; E = Alkaline phosphatase; F = LYP inhibition
> CCOC(=O)CN1C(=O)CSc2ccccc21
  A: -7% | B: 7% | C: -8% | D: -3% | E: 6% | F: -2%
> O=C(c1cnn2c(C(F)(F)F)cc(-c3ccc(Br)cc3)nc12)N1CCOCC1
  A: 2% | B: -2% | C: -8% | D: 9% | E: 9% | F: 0%
> O=C(C1CCN(S(=O)(=O)c2cccc3cccnc23)CC1)N1CCN(c2ccccc2)CC1
  A: 0% | B: -3% | C: -8% | D: -5% | E: -1% | F: 9%
> COc1ccc(-c2cc3nc(C)cc(NCCO)n3n2)cc1
  A: -4% | B: 10% | C: 3% | D: 7% | E: 5% | F: 6%
> O=C(NCCN1CCCC1)c1ccc(Cn2c(=S)[nH]c3cc4c(cc3c2=O)OCO4)cc1
  A: 5% | B: 1% | C: -24% | D: -22% | E: 0% | F: 9%
